Env fusion inh: HIV envelope-mediated fusion inhibition | hit rate 1.1% among 360,000 | HeLa-JRFL Env/CEM21 cell fusion, luciferase | inhibition, % at 12.3 µM;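 active = mean replicate inhibition score of at least 50 and every replicate individually at or above 50; inconclusive = only one of the two criteria met; inactive = mean below 50 and not all replicates reaching 50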;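 also: 0% = plate neutral controls and 100% = maraviroc near 300 nM; one replicate is shown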
eIF4H inh: inhibitors of RNA binding by human eIF4H; Q15056; inhibition, % at 35 µM; eIF4H fluorescence polarization binding assay; AID 2012; hit rate 0.94% among 290,000;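 active = 50% or more with normal probe brightness, or confirmed in later tests; inconclusive = above 50% with abnormal brightness, or retests that disagree; inactive = below 50% or failed in later tests; about a fifth of its hits are not listed in these tables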;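 also: calls also rest on retests at 20 µM and on dose response follow-up; 0% = protein and probe with vehicle and 100% = probe without protein; strong numbers were not always called active; many hits fall short of the cut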
Rce1 inh: inhibitors of yeast Ras-converting enzyme; AID 2563; yeast membranes, quenched prenylated peptide cleavage fluorescence; calls only; hit rate 0.27% among 290,000; Q03530;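 active = fall in fluorescence gain of 50% or more versus controls, with final raw signal at or below 3038400; inconclusive = same 50% fall but final raw signal above 3038400; inactive = fall in fluorescence gain under 50%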;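 also: plate controls were neutral control wells for no effect and wells lacking membranes for full effect; tested at 10 µM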
Target sequence (Q03530 whole entry, looked up): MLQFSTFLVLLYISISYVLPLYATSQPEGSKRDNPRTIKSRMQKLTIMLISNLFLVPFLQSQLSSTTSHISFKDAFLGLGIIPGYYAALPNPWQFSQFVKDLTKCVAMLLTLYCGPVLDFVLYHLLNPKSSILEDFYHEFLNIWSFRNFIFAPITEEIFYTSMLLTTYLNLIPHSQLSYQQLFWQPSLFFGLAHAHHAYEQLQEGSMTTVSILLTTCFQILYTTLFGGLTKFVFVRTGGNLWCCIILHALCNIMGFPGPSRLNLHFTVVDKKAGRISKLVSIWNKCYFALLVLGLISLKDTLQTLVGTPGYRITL
UUG fidelity: modulators of start codon recognition fidelity in yeast | AID 602363 | activity score, % at 18.7 µM | S. cerevisiae UUG-firefly luciferase reporter, luminescence/redox ratio | hit rate 0.13% among 350,000;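 active = replicate mean at a twofold rise or more, about +100% in these data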;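 also: firefly luciferase made from a UUG start codon reports start codon fidelity; reporter light over untreated wells divided by growth signal over untreated wells; some hits fall short of that in this replicate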
MT1-MMP act inh: MT1-MMP (human) activation inhibition; HT1080 RFP-PRO-GFP cells, GFP/RFP ratio fluorescence, overnight; percent of plate control window, DMSO zero; GFP/RFP ratio change, % at 20 µM; hit rate 0.061% among 360,000; AID 651647;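 active = GFP/RFP ratio change of at least 30% with cell ATP level not reduced by more than half and red fluorescence within 50% of control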; also: strong numbers were not always called active
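Assay system: HT1080 cells carrying an RFP-PRO-GFP reporter | Dosing: Single dose of 20 µM compound, 1% DMSO final | Incubation: Cells overnight before dosing, compound overnight, 37 °C, 5% CO2 | Evaluation: GFP/RFP fluorescence ratio | Control set: DMSO and RFP-L50D-GFP cell wells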
CSC inhib: cancer stem cell inhibition; cancer stem cell-like cells viability, luminescence; inhibition, % at 7.5 µM; hit rate 1.1% among 300,000;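 active = mean at 75% or more and at least half the replicates too; inconclusive = mean and replicates disagree; tested in HMLE shEcad cells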;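 also: 0% = median of negative and 100% = median of positive control wells; the first replicate is given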
PABP FP inh: blocks human PABP binding to poly(A) RNA; hit rate 1% among 290,000; inhibition, % at 35 µM; AID 2014; fluorescence polarization;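 active = 50% or more with normal probe brightness, or confirmed in later tests; inconclusive = above 50% with abnormal brightness, or retests that disagree; inactive = below 50% or failed in later tests; about a fifth of its hits are not listed in these tables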;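 also: calls also rest on retests at 20 µM and on dose response follow-up; controls were probe without protein and protein plus probe with vehicle; some compounds called inactive have numbers as strong as hits; many hits fall short of the cut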
Target sequence (P11940 whole entry, looked up): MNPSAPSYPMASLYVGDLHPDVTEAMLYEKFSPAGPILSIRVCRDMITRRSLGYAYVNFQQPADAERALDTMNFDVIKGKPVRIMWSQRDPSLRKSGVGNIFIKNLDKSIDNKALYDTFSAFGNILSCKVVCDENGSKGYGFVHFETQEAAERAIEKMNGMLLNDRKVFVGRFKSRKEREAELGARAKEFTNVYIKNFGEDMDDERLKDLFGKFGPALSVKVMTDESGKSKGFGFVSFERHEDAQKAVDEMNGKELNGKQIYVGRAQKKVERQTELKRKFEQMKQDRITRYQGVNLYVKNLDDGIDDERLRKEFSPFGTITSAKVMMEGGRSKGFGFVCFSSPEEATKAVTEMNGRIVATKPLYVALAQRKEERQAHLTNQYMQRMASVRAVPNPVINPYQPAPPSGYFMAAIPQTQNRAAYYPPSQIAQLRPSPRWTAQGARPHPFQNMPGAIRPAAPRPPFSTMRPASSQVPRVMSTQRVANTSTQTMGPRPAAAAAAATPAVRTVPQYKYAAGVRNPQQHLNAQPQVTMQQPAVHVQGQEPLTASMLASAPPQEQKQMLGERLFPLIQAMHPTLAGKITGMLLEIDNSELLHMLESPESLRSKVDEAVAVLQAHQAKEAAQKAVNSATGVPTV
MT1-MMP act inh RFP: further read-out of MT1-MMP act inh, marked with its call; RFP signal change, %; measured here: RFP expression control read;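 0 = vehicle wells; hits needed this value within 50% of zero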
* hit, by the source's call; i = inactive; ? = inconclusive; . = not tested or not shown.

cpd | Molecule | Env fusion inh | eIF4H inh | Rce1 inh | UUG fidelity | MT1-MMP act inh | MT1-MMP act inh RFP | CSC inhib | PABP FP inh
1 | Cn1nc(C(C)(C)C)cc1NC(=O)C1(C)CCN1C(=O)CC(c1ccccc1)c1ccccc1 (centres undefined) | 37 | . | . | -22 | 0 | -3 | . | .
2 | CCCN1C(=O)c2ccccc2NC1c1ccc(Cl)c(Cl)c1 (centres undefined) | 32 | -8 | i | 5 | -2 | -3 | -7 | 7
3 | CCN(CC(=O)NC(C)C)C(=O)c1ccc(Cl)cc1 | . | 12 | i | 0 | 3 | 3 | 2 | -2
4 | Cc1ccc(OCC(=O)NCCCNC(=O)c2cccnc2)cc1C | 12 | -12 | i | -2 | -1 | -4 | -8 | -3
5 | CCOc1ccc(Nc2nc3c(c(=O)[nH]2)CCCC3)cc1 | -37 | -9 | i | -12 | 3 | 1 | 1 | -3
6 | CC(C)c1ccc(/C=c2\sc3nc(-c4ccncc4)nn3c2=O)cc1 | . | -5 | i | -24 | -4 | -2 | -3 | 6
7 | CCCOc1ccc(-c2csc3ncn(Cc4ccc(C(=O)O)cc4)c(=O)c23)cc1 | 8 | -5 | i | . | -1 | 0 | -10 | 3
8 | COc1cc(NC(=O)C2(C)CCN2C(C)C)cc(OC)c1OC (centres undefined) | -3 | . | . | -10 | 10 | 3 | . | .
9 | CCN(CC)S(=O)(=O)c1cc(C(=O)Nc2ccccc2[N+](=O)[O-])ccc1Cl | 22 | -13 | i | -8 | -6 | -9 | -13 | -6
10 | Cc1ccc(/C=N/Nc2cc(C)nc(NCc3ccccc3)n2)cc1 | 29 | -2 | i | . | -4 | -12 | 97* | -6
11 | Nc1ccc(SCC(=O)Nc2cccc([N+](=O)[O-])c2)cc1 | 8 | 5 | i | . | 2 | 0 | 8 | ?
12 | CC(=O)N1CCN(c2ccc(NC(=O)c3cccc(Cl)c3Cl)cc2)CC1 | 8 | -12 | . | -8 | -5 | -6 | -1 | 8
13 | O=C(CCSc1nc(-c2ccco2)cc(C(F)(F)F)n1)NCC1CCCO1 (centres undefined) | . | -4 | i | -12 | -7 | 2 | . | 3
14 | C=CCNC(=O)C(C#N)c1nc2ccccc2nc1N1CCN(Cc2ccccc2)CC1 (centres undefined) | . | 16 | i | 6 | -4 | 3 | 7 | 23
15 | CCOc1cc(/C=N/NC(=O)c2cccnc2)ccc1OCC(=O)N1CCOCC1 | -9 | -6 | i | -8 | -4 | 1 | 6 | 15
16 | COc1ccc(NC(=O)C(=O)NCCCO)cc1Cl | -16 | -4 | i | -15 | 0 | 2 | -18 | -1
17 | CCS(=O)(=O)Nc1ccc(C2=NN(C(=O)c3ccco3)C(c3ccc(C)cc3)C2)cc1 (centres undefined) | . | 9 | i | . | -1 | -6 | -7 | 14
18 | CC(=O)Nc1ccc(S(=O)(=O)NC2CCS(=O)(=O)C2)cc1Cl (centres undefined) | 1 | 0 | i | . | 2 | -1 | 9 | 8
19 | CC(=O)Nc1ccc(NC(=O)CCn2c(=S)oc3ccccc32)cc1 | -4 | 5 | i | . | 3 | 1 | -28 | 7
20 | Cc1cc(C(=O)N2CCC(C(=O)O)CC2)c(C(F)(F)F)o1 | 87* | -11 | i | . | -1 | 4 | -9 | -3
21 | COCC(=O)Nc1ccccc1C(=O)Nc1ccc(OC)cc1 | -14 | -9 | i | -12 | 1 | -3 | -5 | -4
22 | Cc1ccc(S(=O)(=O)NNC(=O)c2cccc(O)c2)cc1 | 10 | -8 | i | . | -1 | 0 | -14 | 23
23 | O=C(Nc1ccc([N+](=O)[O-])cc1)c1cccc(S(=O)(=O)Nc2cccnc2)c1 | 11 | -15 | . | 6 | -1 | -2 | -10 | 11
24 | COc1ccc(CCNC(=O)Cn2nnc(C(=O)Nc3ccc(Br)cc3)c2N)cc1OC | -7 | . | i | -8 | 2 | -7 | 3 | .
25 | O=C(NCCS(=O)(=O)N1CCN(c2ccccc2)CC1)c1ccco1 | -43 | . | i | -6 | 0 | 2 | -4 | .
26 | O=C(NCCc1nc2ccccc2[nH]1)/C(=C/c1ccco1)NC(=O)c1ccco1 | 5 | 18 | i | . | 0 | 8 | -3 | 1
27 | O=C(Cn1cc([N+](=O)[O-])cn1)NCc1ccc(-n2cccn2)cc1 | -14 | -8 | i | . | -2 | 0 | -6 | -6
28 | COc1cc(C(C)=O)ccc1OCC(O)CN1CCN(c2cc(C)cc(C)c2)CC1 (centres undefined) | 20 | 1 | i | -4 | -1 | -3 | 11 | -13
29 | Nc1nonc1C(=O)NCCNC(=O)c1cccs1 | . | 5 | i | -3 | 4 | 2 | -7 | 3
30 | O=C(CSc1ccc2nnc(-c3cccnc3)n2n1)Nc1ccc(F)cc1F | 4 | 10 | i | -18 | 2 | 0 | -1 | 16

(cont.)
Fields: Env fusion inh	eIF4H inh	Rce1 inh	UUG fidelity	MT1-MMP act inh	MT1-MMP act inh RFP	CSC inhib	PABP FP inh
#31 Cc1ccccc1Nc1nc(N)nc(CSc2nnc(C)n2C)n1
    -7	-8	i	.	-1	2	3	-9
#32 O=C(Nc1cccnc1)C1CCN(S(=O)(=O)c2cccs2)CC1
    1	5	i	.	3	5	-14	15
#33 COc1ccc(C(=O)/C=C/C(=O)N(Cc2ccccc2OC)C(C(=O)NC2CCCCC2)c2ccncc2)c(O)c1 (centres undefined)
    33	-6	i	.	-7	-6	.	1
#34 Cc1ccc(C(=O)NCC(=O)N2CCN(c3ccccc3O)CC2)s1
    21	.	.	-2	7	-1	.	.
#35 CN(Cc1ccccc1)c1oc(COc2ccccc2F)nc1C#N
    14	-2	i	-3	-4	-9	-8	8
#36 COc1ccc(NC(=O)CCCCC(=O)Nc2ccc(OC)cc2)cc1
    -11	-2	i	-12	-2	1	.	2
#37 Cc1nn(Cc2ccccc2)c(Cl)c1C(=O)NCCc1ccccc1
    -39	4	i	-12	3	-8	-9	6
#38 COc1ccc(NC(=O)C(CC(C)C)NS(=O)(=O)c2ccc3c(c2)CCN3C(C)=O)cc1OC (centres undefined)
    -63	1	i	.	3	3	-15	8
#39 Cc1nn2c(Nc3ccc(F)cc3)c3c(nc2c1-c1ccccc1)CCC3
    -8	-7	i	.	5	4	3	-4
#40 CC(C)(C)OC(=O)N1CCCC(C(=O)Nc2ccc(C(=O)NCCc3ccccc3)cc2)C1 (centres undefined)
    18	.	.	9	5	-4	.	.
#41 COc1ccc(/C=N/OCC(=O)N(Cc2ccc(OC)cc2)c2ccccc2C(=O)O)cc1
    -17	-10	i	.	-3	3	-11	?
#42 Cc1nccn1CCC1CCCCN1C(=O)CCc1nnc(-c2ccsc2)o1 (centres undefined)
    4	-8	i	.	-3	1	7	-6
#43 CN(Cc1cc2ccccc2[nH]c1=O)C(=O)c1cccs1
    11	-8	i	-18	-4	-2	-1	-5
#44 COc1ccc(CSc2nnc(-c3ccncc3)n2C)cc1F
    9	-9	i	-10	2	1	14	10
#45 O=C(CCCSc1nc(-c2ccco2)cc(C(F)(F)F)n1)Nc1ccc2c(c1)OCO2
    .	5	i	-12	-5	-13	36	-8
#46 CC1(C)c2[nH]c3ccccc3c2C[C@@H]2C(=O)N(c3cc(F)ccc3F)C(=O)N21
    14	.	i	-17	1	-5	0	.
#47 O=C(NC1CCCCC1)c1n[nH]c2c1CC(c1ccccc1)CC2 (centres undefined)
    -92	.	.	-6	6	-5	.	.
#48 CCOC(=O)N1CCC(NC(=O)Cn2nc(-c3ccccc3)ccc2=O)CC1
    .	-4	i	-7	2	3	.	6
#49 Cc1cc2oc(=O)cc(CN3CCN(S(=O)(=O)c4cccs4)CC3)c2cc1C
    -3	-17	i	-4	-4	-11	-6	-4
#50 CCc1ccccc1NC(=O)c1cc2ncc(Br)cn2n1
    -54	50	i	-14	5	1	-1	31

Compounds 31 to 36, quoted:
Fields: Env fusion inh	eIF4H inh	Rce1 inh	UUG fidelity	MT1-MMP act inh	MT1-MMP act inh RFP	CSC inhib	PABP FP inh
#31 Cc1ccccc1Nc1nc(N)nc(CSc2nnc(C)n2C)n1
    -7	-8	i	.	-1	2	3	-9
#32 O=C(Nc1cccnc1)C1CCN(S(=O)(=O)c2cccs2)CC1
    1	5	i	.	3	5	-14	15
#33 COc1ccc(C(=O)/C=C/C(=O)N(Cc2ccccc2OC)C(C(=O)NC2CCCCC2)c2ccncc2)c(O)c1 (centres undefined)
    33	-6	i	.	-7	-6	.	1
#34 Cc1ccc(C(=O)NCC(=O)N2CCN(c3ccccc3O)CC2)s1
    21	.	.	-2	7	-1	.	.
#35 CN(Cc1ccccc1)c1oc(COc2ccccc2F)nc1C#N
    14	-2	i	-3	-4	-9	-8	8
#36 COc1ccc(NC(=O)CCCCC(=O)Nc2ccc(OC)cc2)cc1
    -11	-2	i	-12	-2	1	.	2

Reformatted: two of the compounds above
31: Cc1ccccc1Nc1nc(N)nc(CSc2nnc(C)n2C)n1
  Env fusion inh: -7	eIF4H inh: -8	Rce1 inh: i	UUG fidelity: .	MT1-MMP act inh: -1	MT1-MMP act inh RFP: 2	CSC inhib: 3	PABP FP inh: -9

32: O=C(Nc1cccnc1)C1CCN(S(=O)(=O)c2cccs2)CC1
  Env fusion inh: 1	eIF4H inh: 5	Rce1 inh: i	UUG fidelity: .	MT1-MMP act inh: 3	MT1-MMP act inh RFP: 5	CSC inhib: -14	PABP FP inh: 15

Later entries
Fields: Env fusion inh	eIF4H inh	Rce1 inh	UUG fidelity	MT1-MMP act inh	MT1-MMP act inh RFP	CSC inhib	PABP FP inh
#51 CCCn1cnc2c(=S)nc(N)[nH]c21
    -2	-1	i	.	12	2	-1	3
#52 COc1ccc(CCNC/C=C/c2ccccc2)cc1
    -11	.	i	-14	1	2	8	.
#53 COC(=O)C1CCN(CC(=O)N(C)c2c(N)n(Cc3ccccc3)c(=O)[nH]c2=O)CC1
    1	.	.	-10	0	4	.	.
#54 Cc1cccc(NC(=O)c2cc(NC(=O)C3CCCCC3C(=O)O)ccc2Cl)n1 (centres undefined)
    .	0	i	17	4	3	.	3
#55 O=C(C1CCCCC1)N(Cc1ccccc1)c1ccccn1
    -56	-8	i	-16	7	7	-8	-1
#56 Cc1cc(C(=O)OCC(=O)c2cccs2)ccc1[N+](=O)[O-]
    6	.	.	3	-5	3	.	.

Only part of the results is shown (hit frequency here may not be typical).
